# From PubChem BioAssay
# TAR Tat displ = HIV-1 TAR-Tat binding disruption; AID 1259389; 100,000 compounds, 0.6% hits; HIV-1 TAR RNA, Tat peptide displacement FRET; hits give high values; z-score (test concentration not listed);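 note: score is relative to mean and SD of negative controls; some compounds called inactive have numbers as strong as hits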
# CDC25B CDK2 inh = human CDC25B-CDK2/CyclinA binding inhibition | HTRF CDC25B-CDK2/CyclinA binding, anti-His/anti-Flag; hits give high values | z-score (no concentration beside the values) | 94,000 compounds, 0.72% hits | AID 1259370;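 note: score is relative to mean and SD of negative controls; strong numbers were not always called active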
# The depositor's hits bear a star; . = no result given.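 Rule for the calls: active = z-score from 3 up in half or more of its runs; inactive = the rest.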
SMILES,TAR Tat displ,CDC25B CDK2 inh
CC1CC(C)CN(S(=O)(=O)c2cc3c(cc2Cl)NC(=O)CO3)C1 (centres undefined),2.1,.
Cc1ccccc1NC(=O)Nc1sc(=S)n(C)c1C,0.11,-0.52
Cc1sc2ncnc(SCC(=O)c3ccc(Br)cc3)c2c1C,.,-4.8
CCOC(=O)C1=C(C)N(C)C(C)=C(C(=O)OCC)C1c1ccccn1,.,-1.1
Cc1nn(-c2ccccc2)c(-n2cccc2)c1CNC(=O)Nc1cc(F)ccc1F,-1.5,.
CCSc1nnc(NC(=O)Cn2cnc(S(=O)(=O)N3CCc4ccccc43)c2)s1,-0.15,.
CCn1c(=O)c2sccc2n2c(CCCC(=O)NCCC3=CCCCC3)nnc12,-0.63,.
COc1ccc(O)c(C2=NN3C(C2)c2ccccc2OC3c2ccsc2)c1 (centres undefined),-1.9,0.98
Cn1c(=O)n(C)c2cc(CNCC3CCCO3)ccc21 (centres undefined),-0.14,-0.5
CCc1nnc2c3ccccc3nc(Nc3cc(Cl)c(OC)cc3OC)n12,1.1,.
O=C1CCCC2=C1C(c1cccc(O)c1)C1=C(CCCC1=O)O2,.,-1.6
N#Cc1c(C(F)(F)F)cc(-c2ccccc2)nc1SCC(=O)Nc1ccc(C(N)=O)cc1,.,0.53
CN(C)c1ccc(C(CNS(=O)(=O)c2cc(F)ccc2F)N2CCc3ccccc32)cc1 (centres undefined),-0.71,.
CCC(=O)N1c2ccc(S(=O)(=O)NC(C)C)cc2CC1C (centres undefined),2.6,.
CCOc1cc(C2C(C(=O)OC)=C(C)NC3=C2C(=O)c2ccccc23)cc(Cl)c1O (centres undefined),-0.37,0.52
CC1(C)C(=O)C=C[C@@]2(C)C1C=C[C@]1(C)C2CC[C@@]2(C)[C@H](c3ccoc3)OC(=O)C3OC321 (some centres undefined),-1.2,.
COc1cc(NC(=O)CSc2nnc(C)n3c2cc2occc23)cc(OC)c1,0.65,.
CC1CC(C)CN(S(=O)(=O)N2CCCC(C(=O)NC3CCCC3)C2)C1 (centres undefined),1.6,.
O=C(Nc1ccc(Br)cc1)c1cccc(-n2cnnc2)n1,0.73,.
CC(=O)c1sccc1NC(=O)CCC(=O)O,.,-0.58

# 2 of the compounds above, with bars between the fields.
molecule | TAR Tat displ | CDC25B CDK2 inh
CC1CC(C)CN(S(=O)(=O)N2CCCC(C(=O)NC3CCCC3)C2)C1 (centres undefined) | 1.6 | .
O=C(Nc1ccc(Br)cc1)c1cccc(-n2cnnc2)n1 | 0.73 | .

# Following part.
SMILES,TAR Tat displ,CDC25B CDK2 inh
CCOc1nc(C)ccc1-c1noc(-c2ccc(C)cc2)n1,-1.7,-1.7
C=Cc1ccc(CSc2cc(C)nc3nc(C)nn23)cc1,1.1,-0.52
c1ccc(CSC23CC4CC(CC(C4)C2)C3)cc1,.,-0.96
Cc1sc(-c2ccno2)cc1S(=O)(=O)N1CCc2ccccc2C1,-2.6,.
O=C(NCc1nnc2c(Cl)cc(C(F)(F)F)cn12)c1ccccc1,.,-1.3
CC(=O)c1sc(COc2ccc(Cl)cc2)nc1C,.,0.38
O=S(=O)(c1ccc(F)cc1)N(Cc1ccco1)CC(O)Cn1c2ccccc2c2ccccc21 (centres undefined),-2.2,-0.88
CNS(=O)(=O)c1ccccc1S(=O)(=O)c1ccccc1C(=O)O,.,-1.1
CCc1nc(-c2csc(S(=O)(=O)N3CCC(C(=O)NC(C)CC)CC3)c2)no1 (centres undefined),0.97,.
CN(C)CCCN(C(=O)Cc1ccccc1)c1nc2c(F)cc(F)cc2s1,1.6,.
c1coc(-c2cc(-c3nc(-c4ccc5c(c4)OCO5)no3)[nH]n2)c1,0.23,.
CCOc1cc2c(cc1OCC)C1CC(=O)N(c3ccc(Cl)cc3)C(=O)N1CC2 (centres undefined),1.1,.
CCOC(=O)Cn1cnc2c(sc3nc(C)cc(C)c32)c1=O,0.67,-1.4
CC1CCCN(c2nn3c(=O)c(C(=O)N4CCN(c5ccccc5)CC4)cnc3s2)C1 (centres undefined),-0.98,.
Cc1cc(-c2ccc(S(=O)(=O)Nc3ccc(F)c(Cl)c3)s2)n[nH]1,0.39,.
COc1ccc(-c2noc(NCCc3ccc(SC)cc3)n2)cc1OC,0.7,.
CCOc1ccc(S(=O)(=O)N(CC)CC)cc1-c1nc2c(C(C)(C)C)nn(C)c2c(=O)[nH]1,0.92,-0.48
COc1ccc(C(=O)/C(=N\O)c2ccccc2)cc1,.,7.7
Fc1cccc(CN2CCc3nc(Nc4ccc5c(c4)OCO5)ncc3C2)c1,1.9,.
CC(=O)c1ccc(Sc2cccc(C(F)(F)F)c2)c([N+](=O)[O-])c1,.,-2.2
O=C(O)COCC(=O)N1CCN(C(c2ccccc2)c2ccccc2)CC1,.,-1.1
Cc1ccccc1-c1nc(SCC(=O)NC(C)CCc2ccccc2)n2[nH]c(=O)cc2n1 (centres undefined),1.4,.
O=C(Nc1nc2ccccc2s1)NC1CC(=O)N(c2ccc3c(c2)OCCO3)C1 (centres undefined),2.3,.
Cc1nc(-c2ccc(S(=O)(=O)NCc3ccco3)cc2)co1,0.68,.
COC(=O)C1=C(C)NC2=C(C(=O)CC(C)(C)C2)C1c1cccc(Oc2ccccc2)c1 (centres undefined),1.4,-1.4
OCc1ccc(-c2nn(Cc3ccccc3)c3ccccc23)o1,.,-1.4
CC(C)N1CSC(=S)N(Cc2ccccc2)C1,.,-1.8
CCN(CC)CCn1cnc2c(=O)oc3ccccc3c21,.,-0.49
O=C(NCc1cccs1)C1CCN(C(=O)N2CCOc3ccc(Cl)cc32)CC1,1.4,.
O=C(NCc1ccccc1)N1c2ccccc2Sc2ccccc21,1.8,0.47
O=C(c1cc(-c2cccnc2)n[nH]1)N1CCC(c2ccccc2)C1 (centres undefined),1.6,.
COCC(C)NC(=O)CCSc1nc(-c2ccco2)cc(C(F)(F)F)n1 (centres undefined),-0.18,-0.58
CC(=O)OC[C@@H](OC(C)=O)[C@@H](OC(C)=O)[C@H](OC(C)=O)C(=O)O,.,-1.1
O=C(C1CCN(S(=O)(=O)c2cccc3nonc23)CC1)N1CCCC1,-0.82,-0.59
CC1=C(c2ccc(C(C)C)cc2)S(=O)(=O)NC1=NCCc1ccc(S(N)(=O)=O)cc1,-1.7,0.64
COC(=O)c1ccc(C2C3=C(CC(C)(C)CC3=O)Nc3cc(OC)c(OC)cc32)cc1 (centres undefined),3,-2.3
Cc1ccc(C(=O)c2oc3ccccc3c2NC(=O)c2snnc2C)cc1F,0.99,-1.9
Cc1cc(NCCNc2ccccc2)c2ccc3ccccc3c2n1,.,-1.8
Cc1c(C#N)sc(C#N)c1O,.,-2.5
CCCCN[C@H]1CS(=O)(=O)C[C@@H]1S(=O)(=O)c1ccc(NC(C)=O)cc1,0.24,-1.5
Clc1ccc(SCCn2ccnc2)cc1,.,-2.4
CCc1ccc2nc(NC3=NCN(CC4CCCO4)CN3)nc(C)c2c1 (centres undefined),-1.5,2.2
COC(=O)c1ccc(CSc2nnc(-c3ccc4c(c3)OCCCO4)n2-c2ccccc2)o1,2.1,.
O=C(NCCc1nc2ccc(F)cc2[nH]1)c1[nH]nc2c1COc1ccccc1-2,1.4,.
CC1=[N+]([O-])C(C)(C)CC(C)c2ccccc21 (centres undefined),.,-0.33
COc1ccc(OC(=O)c2cc(-c3ccccc3)c(C(F)(F)F)s2)cc1,.,0.76
O=S(=O)(Nc1cccc(F)c1)c1ccc(N2CCCCS2(=O)=O)cc1,-0.03,.
COc1cccc(I(OC(C)=O)OC(C)=O)c1,.,-2.2
CC(C)Oc1ccccc1C1CC(=O)Nc2nc(SCc3cccc(Cl)c3)[nH]c(=O)c21 (centres undefined),2.6,-2.1
Cc1cccc(C)c1Nc1c(-c2ccsc2)nc2sccn12,1.8,-0.42

# Next section
SMILES,TAR Tat displ,CDC25B CDK2 inh
Cn1c(=O)c2sccc2n2c(CCCC(=O)Nc3ccccc3F)nnc12,-0.6,.
O=C(c1cccc(Cl)c1)N1CCC(c2nc3c(nnn3Cc3ccc4c(c3)OCO4)c(=O)[nH]2)CC1,1.3,1.6
COc1ccccc1NC(=S)NC1CC2CCC1C2 (centres undefined),.,-1.6
Cc1ccc2c(=O)cc(C(=O)N(Cc3ccc(C(C)C)cc3)C3CCS(=O)(=O)C3)oc2c1 (centres undefined),3.2,-1.1
O=C(CC1=NS(=O)(=O)c2ccccc2N1)NCCc1c[nH]c2ccccc12,0.49,.
COc1ccc(-c2noc(C(C)Oc3ccc(Cl)cc3C)n2)cc1OC (centres undefined),1.1,-3.2
CC(=O)N1CCc2cc(S(=O)(=O)CCC(=O)NCCc3sccc3C)ccc21,-0.28,.
CNC(=S)C1C2CC3CC(C2)CC1C3 (centres undefined),.,-1.5
O=C(Nc1cc(F)ccc1F)N1CCC(CN2CCOCC2)CC1,1.3,.
COc1nnc(SC)n1-c1cccc2ccccc12,.,-4
O=C(/C=C/c1cccc2ccccc12)Nc1ccc(S(=O)(=O)N2CCCCCC2)cc1,.,-4.6
COC(=O)c1ccc(N2CSC3=C(C#N)C(c4cccs4)CC(=O)N3C2)cc1 (centres undefined),2.2,-0.72
CC1CN(C(=O)CSc2nc(-c3cccs3)cc(C(F)(F)F)n2)CC(C)O1 (centres undefined),-1.1,-0.43
O=S(=O)(c1ccc(F)cc1)n1nc(-c2ccco2)nc1NCc1ccc(Br)cc1,2.4,-1.7
CCOC(=O)c1c(S(=O)(=O)Nc2cccnc2)c(C)n(C)c1C,2.5,.
COc1ccc(C(=O)CSc2nc(C)cc(C)c2C#N)cc1OC,.,-9.8
Cc1cc(C)n(Cc2ccc(C(=O)NCc3cccs3)o2)n1,0.89,.
CCOC(=O)C1=C(C)NC2=C(C(=O)C(C(=O)OC)C(C)C2)C1c1ccc(C)s1 (centres undefined),1.9,-0.95
CC1=C(c2ccccc2)S(=O)(=O)N=C1Nc1ccccc1C,-0.55,-0.9
CN(C)CCN(Cc1cccs1)C(=O)C1CCN(c2ccc(-c3cccs3)nn2)CC1,0.74,.
Cc1ccc(C(CNC(=O)c2cc(-c3cccs3)on2)N2CCCCC2)o1 (centres undefined),-1.3,-0.31
COC(=O)c1cc(S(=O)(=O)NC2CCCCC2C)c[nH]1 (centres undefined),1.7,.
Cc1cc(C)cc(NC(=O)c2cc(C(C)C)n(C3CCS(=O)(=O)C3)n2)c1 (centres undefined),1.6,-1.4
CC(=O)Nc1nonc1-c1nnc(SCC(=O)Nc2ccccc2)n1C,0.73,-1.6
CCCCn1c(-c2nonc2N)nc2ccccc21,1.1,-2.3
COc1ccc(NS(=O)(=O)c2ccc(N3CCCC3=O)cc2)cc1,0.14,.
O=S(=O)(Nc1ccccc1SCc1cccc(Cl)c1F)c1cccc2nonc12,.,-0.89
Cc1nnc(SCC(=O)n2c(C)c(C)c3ccccc32)s1,1.1,0.01
Cn1c(-c2ccc(Br)cc2)n[nH]c1=S,.,-0.22
O=c1c(SCc2ccccc2F)nccn1-c1ccccc1,0.84,.
CCn1c(-c2ccc(Br)cc2)n[nH]c1=S,.,-0.96
CC(C)OC(=O)Cc1csc(-c2ccc(Oc3ccc(C(F)(F)F)cn3)cc2)n1,.,-2.1
O=C(NCCc1ccco1)C1CCN(c2ccc(-c3cccs3)nn2)CC1,-0.51,.
O=[N+]([O-])c1cccc(-c2csc(N/N=C\c3cccc(O)c3)n2)c1,.,-2.7
Cc1ccn2c(=O)c(Cc3nnc(SCC(=O)Nc4ccc(C(C)C)cc4)n3C)c(C)nc2c1,-0.64,-0.6
COC(=O)c1[nH]cc(-c2ccccc2)c1N,1.3,-0.68
O=c1c(=S)[nH]ccn1-c1ccc(Cl)cc1,-0.11,-3.2
CC1(C)CC(=O)C2=C(C1)OC(N)=C(C#N)C2c1ccccc1C(F)(F)F (centres undefined),.,0.28
O=c1c2ccccc2ncn1-c1cccc(Cl)c1,0.84,-0.31
CCN(CC)C(=O)c1cc(C2CC2)[nH]n1,-1.7,.
CCCc1cc(=O)n2[nH]c(SC)nc2n1,0.49,-2.2
CC(=O)Oc1ccc(Cl)cc1C1=NN(C(C)=O)C(c2cccnc2)O1 (centres undefined),2.5,.
CCOC(=O)N1CCN(c2c(NCC3CCCO3)c(=O)c2=O)CC1 (centres undefined),0.62,-1.3
Cc1ccc(CNC(=O)c2cnc3scc(C)n3c2=O)o1,1.1,.
CN1CCN(C(=O)c2cnn(-c3cccc(F)c3)c2-n2cccc2)CC1,0.82,.

# Gathered by group: those above containing an aryl methoxy group (13)
SMILES,TAR Tat displ,CDC25B CDK2 inh
COc1ccc(O)c(C2=NN3C(C2)c2ccccc2OC3c2ccsc2)c1 (centres undefined),-1.9,0.98
CCc1nnc2c3ccccc3nc(Nc3cc(Cl)c(OC)cc3OC)n12,1.1,.
COc1cc(NC(=O)CSc2nnc(C)n3c2cc2occc23)cc(OC)c1,0.65,.
COc1ccc(-c2noc(NCCc3ccc(SC)cc3)n2)cc1OC,0.7,.
COc1ccc(C(=O)/C(=N\O)c2ccccc2)cc1,.,7.7
COC(=O)c1ccc(C2C3=C(CC(C)(C)CC3=O)Nc3cc(OC)c(OC)cc32)cc1 (centres undefined),3,-2.3
COc1ccc(OC(=O)c2cc(-c3ccccc3)c(C(F)(F)F)s2)cc1,.,0.76
COc1cccc(I(OC(C)=O)OC(C)=O)c1,.,-2.2
COc1ccccc1NC(=S)NC1CC2CCC1C2 (centres undefined),.,-1.6
COc1ccc(-c2noc(C(C)Oc3ccc(Cl)cc3C)n2)cc1OC (centres undefined),1.1,-3.2
COc1nnc(SC)n1-c1cccc2ccccc12,.,-4
COc1ccc(C(=O)CSc2nc(C)cc(C)c2C#N)cc1OC,.,-9.8
COc1ccc(NS(=O)(=O)c2ccc(N3CCCC3=O)cc2)cc1,0.14,.

# Outcome played no part in choosing rows, and some 0.87% of all compounds hit somewhere here.
